TSHR ag – TSH receptor (human) agonism. P16473. HEK293-CNG-TSHR cells (CNG channel as cAMP sensor), membrane potential dye, cAMP. actives 0.48% (n = 73,000). AID 926. Potency, µM (top dose mostly 57.1 µM), inactives show at the highest dose activation, most hits filed as activators; active = well fitted activation curve of enough size with the parental cells flat; inconclusive = any curve in the parental cells; inactive = parental cells flat and receptor cells flat or falling; further: potency means the concentration at half of the fitted maximal effect; % of control where 0% means no effect; weak receptor curves with flat parental cells got no call and are not listed
Target sequence (P16473 whole entry, looked up): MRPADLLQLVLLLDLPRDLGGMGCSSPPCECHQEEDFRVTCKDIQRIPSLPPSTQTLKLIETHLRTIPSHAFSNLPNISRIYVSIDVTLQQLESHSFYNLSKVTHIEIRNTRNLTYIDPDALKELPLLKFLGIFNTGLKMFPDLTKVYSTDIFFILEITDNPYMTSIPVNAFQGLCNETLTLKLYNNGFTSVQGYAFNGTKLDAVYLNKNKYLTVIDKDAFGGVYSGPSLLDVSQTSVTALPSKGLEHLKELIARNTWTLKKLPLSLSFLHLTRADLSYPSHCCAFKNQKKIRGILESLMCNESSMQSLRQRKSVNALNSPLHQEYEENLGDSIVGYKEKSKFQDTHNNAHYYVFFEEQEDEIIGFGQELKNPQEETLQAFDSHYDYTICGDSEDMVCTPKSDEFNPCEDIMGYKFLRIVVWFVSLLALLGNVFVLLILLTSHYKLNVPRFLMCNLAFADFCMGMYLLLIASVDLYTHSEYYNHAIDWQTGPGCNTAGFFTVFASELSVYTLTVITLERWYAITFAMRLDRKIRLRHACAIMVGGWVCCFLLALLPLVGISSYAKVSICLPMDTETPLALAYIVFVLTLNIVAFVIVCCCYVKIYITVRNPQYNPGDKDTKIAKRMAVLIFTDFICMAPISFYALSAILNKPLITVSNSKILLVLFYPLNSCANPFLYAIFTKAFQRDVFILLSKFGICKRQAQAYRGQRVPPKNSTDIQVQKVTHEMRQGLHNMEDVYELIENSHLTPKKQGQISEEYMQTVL
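HEK 293 cells stably expressing TSHR and a modified CNG channel, with CNG-only parental cells as counterscreen, were preloaded 60 min at room temperature with membrane potential dye containing 100 uM RO 20-1724. Compound exposure was 30 min, and depolarization was read as fluorescence at 590 nm.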
AID923 – qHTS Assay for Allosteric/Competitive Inhibitors of Caspase-1: Spectroscopic Profiling in AFC Spectral Region. actives 1.1% (n = 75,000). compound fluorescence, AFC spectral region (405/520 nm); almost no hit is shown here. Potency, µM (doses to about 57.5 µM), for the others: at the highest dose fluorescence increase, most hits filed as activators; active means well fitted activation curve with a large enough effect; inconclusive means small, poorly fitted or top-dose-only effect;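 further: potency means the concentration at half of the fitted maximal effect; 0% is about no effect; scaled to a free AFC standard on each plate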
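Baseline compound fluorescence (AFC region, 405 nm ex/520 nm em) taken from the intercept of kinetic reads with 50 nM caspase-1 and 5 uM Ac-WEHD-AFC; normalized to an on-plate AFC standard curve; compounds titrated up to 57 uM.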
A647 fluor – compound fluoresces in the A647 spectral region; 59,000 tested, under 10 active; max dye-equivalent concentration, M; Compound fluorescence, A647 channel (570/671 nm), Tris buffer; active means above 1 µM dye equivalent; inconclusive means 0.1 to 1 µM; inactive means 0.1 µM or less;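 further: values scaled relative to a standard on each plate; highest value over a series up to 38 µM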
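Each compound's intrinsic fluorescence at 570 nm excitation and 671 nm emission is measured across its concentration series in 100 mM Tris, pH 8.0, after 15 min at room temperature, and reported relative to an A647 curve.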
A488 autofl – compound fluoresces in the A488 spectral region; compound autofluorescence, A488 spectral region, dye equivalency; active compounds read high; max dye equivalency, M; actives 0.1% (n = 59,000); AID 591; active = above 10 nM dye equivalent; inconclusive = 1 to 10 nM; inactive = 1 nM or less; about half of its hits are not listed in these tables;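 further: highest value over a series up to 38 µM; compound alone in buffer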
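Compounds pin-transferred into 100 mM Tris buffer, pH 8.0, incubated 15 min at room temperature, then imaged with 480 nm excitation/540 nm emission filters. Fluorescence converted to Alexa 488 dye-equivalent concentration via an on-plate six-point A488 standard curve.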
Resorufin fluor – resorufin region autofluorescence. Compound fluorescence, resorufin region 547/598 nm, buffer; active compounds read high. actives 0.04% (n = 59,000). max dye-equivalent concentration, M; active = above 10 nM dye equivalent; inconclusive = 1 to 10 nM; inactive = 1 nM or less; a few of its hits are not listed in these tables; further: highest value over a series up to 38 µM
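Read-out: intrinsic compound fluorescence at ex 547/em 598 nm after 15 min at RT in pH 8.0 Tris (100 mM). Values expressed as resorufin-equivalent concentration from per-plate standard series.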
An asterisk follows results filed as active; i = inactive; ? = inconclusive; . = no result given; & = joins results of further samples; [ ] = another dose, or the depositor's remark. A portion of the library; the hit share may differ from the screen's.

entry	compound	TSHR ag	AID923	A647 fluor	A488 autofl	Resorufin fluor
1	Cc1nn2c(N3CCCC3)cc(C(C)C)nc2c1-c1ccccc1	2%	-2.3%	3.7e-08	i	i
2	CCOc1cccc(NC(=O)CC#N)c1	-6%	-0.6%	2.6e-08	i	i
3	CCOC(=O)N1CCC(N2Cc3cccc(C(=O)NCc4ccc(C)cc4)c3C2=O)CC1	2%	3.6%	.	.	.
4	Clc1ccc(Cc2nnc(-c3ccccc3Br)o2)cc1	?	3.9%	.	.	.
5	N#Cc1ccc(Sc2nc3ccccc3[nH]2)cc1C#N	-6%	0.1%	.	.	.
6	COC(=O)C1=C(C)NC(=O)C1(Nc1nccs1)C(F)(F)F (stereo not drawn)	14%	0.0%	3.5e-08	i	i
7	O=C(Cn1nnc(-c2ccccc2)n1)NCc1ccc2c(c1)OCO2	1%	0.6%	1e-09	i	i
8	CCOC(=O)CCCCC(=O)c1[nH]c(=O)[nH]c1CSc1nc(-c2ccccc2)c(C#N)c(=O)[nH]1	.	-1.0%	1e-09	i	i
9	COc1ccc(-c2nnc(SCC(=O)OC3CCCCC3)o2)cc1OC	?	0.3%	1e-09	i	i
10	CCOC(=O)C1/C(=N\O)CC(C)(O)C(C(=O)OCC)C1c1ccc(OC)c(OC)c1 (stereo not drawn)	.	.	1.9e-09	i	i
11	COc1ccc(NC(=O)C2CCC(C)(C(=O)O)C2(C)C)cc1 (stereo not drawn)	-7%	2.5%	.	.	.
12	CCOC(=O)c1cnc(-n2nc(C)cc2C)nc1NCc1ccc2c(c1)OCO2	2%	0.6%	4.6e-08	i	i
13	CCS(=O)(=O)N1CCN(Cc2nc3ccccc3c(=O)[nH]2)CC1	1%	-1.2%	3.4e-08	i	i
14	O=C(CN1CCOCC1)N1CCCc2c1c(=O)oc1ccc(OCc3ccccc3)cc21	15%	1.3%	1e-09	i	i
15	COc1cccc(OCCOCCN(C)CCO)c1	0%	0.7%	.	.	.
16	CCN=C(Nc1cccc(F)c1)SC1CC(=O)N(c2ccc(OC)cc2)C1=O (stereo not drawn)	-11%	-1.2%	1e-09	i	i
17	CC(=O)Nc1ccc(S(=O)(=O)NCC2CCC(C(=O)N3CCN(c4ccccn4)CC3)CC2)cc1 (stereo not drawn)	-2%[11.4 µM]	1.5%	3.2e-09	i	i
18	O=C(O)CCc1ccc(-c2cccs2)n1NC(=O)c1ccccc1Br	10%	3.7%	1e-09	i	i
19	CCN1CCN(S(=O)(=O)c2cc(OC)ccc2OC)CC1	5%	-4.6%	1e-09	i	i
20	N[C@@H](C(=O)O)c1ccc(C(=O)O)c(C(=O)O)c1	0%&-6%&-2%	2.5%&0.3%&-1.6%	.	.	.
21	CCOc1ccc2nc(NC(NC(=O)CC)(C(=O)OC)C(F)(F)F)sc2c1 (stereo not drawn)	.	.	8.5e-09	i	i
22	COc1cc(OC)c(NC(=O)CCc2nc(-c3cccs3)no2)cc1Cl	9%	-0.9%	4.3e-09	i	i
23	COc1ccc(-n2c(=O)c(C)nc3cnc(N4CCOCC4)nc32)cc1	-6%	8.9%	2.1e-08	i	i
24	COc1ccc(CNC(=O)c2noc3c2CCCCC3)cc1	-3%	-1.0%	7e-09	i	i
25	CCn1c(=O)n(CC(=O)N2CCN(c3ccccc3F)CC2)c(=O)c2ccccc21	-1%[11.4 µM]	0.4%	1e-09	i	i
26	COc1ccc(/C(O)=C2/C(=O)C(=O)N(CCN(C)C)C2c2ccc(OC)c(OC)c2)c(C)c1 (stereo not drawn)	-2%	-1.4%	1.9e-09	i	i
27	CCOc1ccc(-c2n[nH]c(C)c2Oc2ccccc2OC)c(O)c1	21%	-0.9%	2.9e-08	i	i
28	O=S(=O)(Nc1ccc2c(c1)OCCO2)c1cccs1	?	-0.3%	2.5e-08	i	i
29	NC(N)=NC(N)=Nc1cccc(Cl)c1	-1%	-1.1%&-0.6%	4.8e-09	i	i
30	COC(=O)c1sccc1NC(=O)c1ccoc1C	21%	0.4%	.	.	.
31	CC(C)CNS(=O)(=O)c1ccc(CCC(=O)N2CCN(Cc3ccccc3)CC2)cc1	8%	0.7%	1e-09	i	i
32	Cc1cc(NC(=O)c2oc3ccccc3c2C)ccc1-n1cnnn1	.	-0.3%	1e-09	i	i
33	COC(=O)c1[nH]c2cc(OC)ccc2c1NC(=O)c1ccc2c(c1)OCO2	-18%	2.0%	.	.	.
34	COCc1cc(C)nc2sc(C(=O)OC(C)C)c(N)c12	0%	2.0%	1.6e-09	i	i
35	CCOC(=O)N1CCC(Nc2c(N3CCN(c4cccc(C(F)(F)F)c4)CC3)c(=O)c2=O)CC1	1%[11.4 µM]	-1.7%	5.7e-09	i	i
36	O=C(NCCc1ccccn1)c1ccc(S(=O)(=O)N2CCCCCC2)cc1	.	3.0%	1e-09	i	i
37	O=C1C=C(O)CC(c2ccco2)C1 (stereo not drawn)	.	.	3.4e-08	i	i
38	Cc1ccc(C(=O)O)c(C(=O)Nc2nc(C)cs2)c1	-6%	0.2%	1e-09	i	i
39	O=C(CSc1ccc(Cl)cc1)c1ccco1	9%	-2.4%	2.5e-09	i	i
40	COCc1nn2c(N)c(C#N)cnc2c1-c1ccccc1	-1%	-0.2%	1e-09	i	i
41	C/C(N)=C(/C#N)C(=O)CSc1nnnn1-c1ccc(C)cc1C	?	-1.2%	1e-09	i	i
42	CCc1nc2ccccc2c(=O)n1NC(=O)c1c(O)c2ccccc2[nH]c1=O	-3%	-0.2%	6.4e-09	i	i
43	Cc1nn(-c2ccccn2)c2nc(-c3cccs3)cc(C(=O)N3CCOCC3)c12	3.2µM*	-0.8%	3.8e-09	i	i
44	CCn1c(SCC(=O)N2CCOCC2)nc2sc3c(c2c1=O)CCCC3	.	.	5.2e-08	i	i
45	Cc1ccc(N2CCN(CC3CC=CCC3)CC2)cc1 (stereo not drawn)	1%	1.5%	.	.	.
46	CCOC(=O)N1CCN(C(=O)CSCc2nc(-c3ccccc3C)oc2C)CC1	.	-0.7%	5.4e-09	i	i
47	CC1CCCN(C(C(=O)Nc2ccc3c(c2)OCCO3)c2ccccc2)C1 (stereo not drawn)	?	1.8%	1.8e-08	i	i
48	COc1ccc(-c2ccc(-c3nnn(CC(=O)N4CCOCC4)n3)cc2)cc1	1%	-0.5%	2.8e-08	i	i
49	O=C(CN1C(=O)CSC1=O)Nc1ccccc1F	5%	0.9%	2.6e-09	i	i
50	CC(C)(C)c1cc(CN2CCN(CCC#N)CC2)cc(C(C)(C)C)c1O	?	0.1%	3.4e-08	i	i
51	COc1ccc(Cl)c(NC(=O)NCCN2CCN(c3ccccc3)CC2)c1	-9%	2.4%	1e-09	i	i
52	CCSC(=Nc1ccccc1)C1=C(O)COC1=O	1%	0.0%	2.3e-08	i	i
53	COc1ccc(C(=O)CN2C(=O)c3ccccc3C2=O)c(OC)c1C	2%	-1.5%	1.4e-08	i	i
54	Cn1c(=O)oc2cc(S(=O)(=O)NCCc3ccccc3)ccc21	6%	0.6%	1.9e-08	i	i
55	COc1ccc(-c2nnc(NC(=O)c3ccc(S(=O)(=O)N4CCCc5ccccc54)cc3)o2)cc1	4%	0.2%	2.1e-09	i	i
56	O=C(Nc1ccc(NC(=O)C2CC2)nc1)c1cccnc1	-4%	-4.1%	3.6e-08	i	i
57	O=C(Nc1cccc(-c2cn3ccccc3n2)c1)c1cnccn1	4%	2.6%	2.2e-09	i	i
58	CCOc1ccccc1N(CC(=O)NC1CCCCC1)C(=O)CCCC(=O)Nc1ccccn1	3%	1.3%	1.6e-09	i	i
59	Cc1nc2ccc(-c3ccccc3)cc2o1	0%	0.7%	4.5e-09	i	i
60	Cc1nc2ccccc2nc1N1CCCC1	-5%[11.4 µM]	5.4%[11.5 µM]	3.2e-09	i	i

Copied from above: entries 50–54
entry	compound	TSHR ag	AID923	A647 fluor	A488 autofl	Resorufin fluor
50	CC(C)(C)c1cc(CN2CCN(CCC#N)CC2)cc(C(C)(C)C)c1O	?	0.1%	3.4e-08	i	i
51	COc1ccc(Cl)c(NC(=O)NCCN2CCN(c3ccccc3)CC2)c1	-9%	2.4%	1e-09	i	i
52	CCSC(=Nc1ccccc1)C1=C(O)COC1=O	1%	0.0%	2.3e-08	i	i
53	COc1ccc(C(=O)CN2C(=O)c3ccccc3C2=O)c(OC)c1C	2%	-1.5%	1.4e-08	i	i
54	Cn1c(=O)oc2cc(S(=O)(=O)NCCc3ccccc3)ccc21	6%	0.6%	1.9e-08	i	i

Profiles as entered above:
CCN1CCN(S(=O)(=O)c2cc(OC)ccc2OC)CC1 across the screens: TSHR ag: 5%; AID923: -4.6%; A647 fluor: 1e-09; A488 autofl: i; Resorufin fluor: i
COc1ccc(-n2c(=O)c(C)nc3cnc(N4CCOCC4)nc32)cc1 across the screens: TSHR ag: -6%; AID923: 8.9%; A647 fluor: 2.1e-08; A488 autofl: i; Resorufin fluor: i

Later entries.
entry	compound	TSHR ag	AID923	A647 fluor	A488 autofl	Resorufin fluor
61	O=C(COc1ccccc1)N1CCN(C(=O)Cc2ccccc2)CC1	3%[11.4 µM]	0.4%	.	.	.
62	CCOc1ccc(NC(=O)c2ccccc2OC)cc1	23%	-0.6%	4.3e-08	i	i
63	Cc1ccc(NC(=O)C2CCN(S(=O)(=O)c3c(C)n[nH]c3C)CC2)nc1	5%	5.5%	1e-09	i	i
64	CC1CC(C(F)(F)F)n2ncnc2N1 (stereo not drawn)	.	.	6.8e-08	i	i
65	Cc1cc(N2CCOCC2)n2nc(C)c(-c3ccccc3)c2n1	-4%	2.6%	2e-09	i	i
66	Cc1ccc(NCc2nnc(SCC(=O)N3CCCc4ccccc43)o2)c(C)c1	1%	1.6%	1.7e-08	i	i
67	O=c1[nH]c2cc3c(cc2cc1CN(CC1CCCO1)S(=O)(=O)c1ccccc1)OCCO3 (stereo not drawn)	10%	14%	3e-08	i	i
68	CCOC(=O)C1C(=O)NC(N2CCCCC2)=NC1c1ccccc1 (stereo not drawn)	9%	-1.2%	1.1e-08	i	i
69	COC(=O)CSc1nc(NCC(C)C)nc(N2CCOCC2)n1	18%	0.0%	1e-09	i	i
70	Cc1ccc(-c2csc(N(CCCN3CCOCC3)C(=O)c3ccco3)n2)cc1	?	2.0%	2.6e-08	i	i
71	COC(=O)c1ccc(NC(=O)CN2CCOCC2)cc1	19%	1.7%	3.8e-09	i	i
72	Cc1cc(C)n(C(=O)CCCC(=O)n2nc(C)cc2C)n1	?	-1.8%	3e-08	i	i
73	Cc1cc(Cl)c(S(=O)(=O)N2CC(C)OC(C)C2)cc1OCC(N)=O (stereo not drawn)	3%	2.4%	9.2e-09	i	i
74	COCCN1C(=O)c2ccccc2C(C(=O)NCCCN2CCCC2=O)C1c1c[nH]c2ccccc12 (stereo not drawn)	-1%	-0.2%	2.5e-08	i	i
75	O=C(O)CCCC(=O)Nc1ccccc1C(=O)N1CCCC1	0%	0.2%	1e-09	i	i
76	Cn1nnnc1SCCNCc1ccncc1	6%	1.7%	1.8e-08	i	i
77	CCCn1c(Nc2nc3ccccc3n2C)nc2ccccc21	-13%	-1.2%	1e-09	i	i
78	O=C1CN(/N=C\c2ccc([N+](=O)[O-])o2)C(=O)N1	-7%[25.6 µM]	11%[25.7 µM]	2.4e-08	?	i
79	COc1ccc(-c2oc3ncnc(NCCN4CCOCC4)c3c2-c2ccc(OC)cc2)cc1	.	1.2%	2.6e-08	i	i
80	N#Cc1cccc(NC(=O)N2CC3(CCN(C(=O)c4cnccn4)CC3)C2)c1	1%	2.1%	2.9e-08	i	i
81	Cc1ccc(S(=O)(=O)CC2CSc3nc(N)cc(=O)n32)cc1 (stereo not drawn)	6%	0.8%	5e-08	i	i
82	CN1CCN(c2ccc(Cl)cc2NC(=O)C2COc3ccccc3O2)CC1 (stereo not drawn)	?	-0.9%	1e-09	i	i

Bioassay records from PubChem BioAssay.
